Compound activity deposited in PubChem BioAssay by National Center for Advancing Translational Sciences (NCATS).
SARS PLpro yeast – inhibitors of SARS-CoV papain-like protease in yeast. S. cerevisiae expressing SARS-CoV PLpro, growth rescue; control for the full effect not named in the record. Potency, µM (top dose mostly 32.9 µM), inactives show at the top dose activity, positive = growth rescue. 330,000 tested, 0.19% active. AID 485353; further: 0% is about no effect; nearly all actives have a fitted effect of over 55% in size; growth read by luminescence after 48 h
Marburg entry inh – inhibitors of Marburg virus binding or cell entry; Marburg virus pseudotyped entry inhibition, cell reporter; control for the full effect not named in the record; about a third of the inactives were read at about 46 µM; Potency, µM (titrated, usually from 37.8 µM), inactives show at the highest dose activity change, negative = inhibition, usual class: inhibitors; 300,000 tested, 1.8% active; AID 540276; active = well fitted inhibition curve with a large enough effect; inconclusive = small, poorly fitted or top-dose-only effect, or effect the other way; inactive = flat fitted curve, though single readings scatter; tested in HEK293 cells; about a fifth of its hits are not listed in these tables; further: on the % scale 0 is the no-effect control and ±100 the full control effect; luciferase read-out
LASV entry inh – Lassa virus entry inhibition; Lassa virus pseudotype entry inhibition, cell reporter; control for the full effect not named in the record; AID 540256; 300,000 tested, 1.2% active; Potency, µM (doses to about 37.9 µM), for inactives: top-dose activity change, negative = inhibition, most hits filed as inhibitors; active means well fitted inhibition curve with a large enough effect; inconclusive means small, poorly fitted or top-dose-only effect, or effect the other way; inactive means flat fitted curve, though single readings scatter; tested in HEK293 cells; further: on the % scale 0 is the no-effect control and ±100 the full control effect; nearly all actives have a fitted effect of over 50% in size; luciferase read-out
2A StopGo – FMDV 2A StopGo reporter, luciferase signal; human cells with a luciferase reporter of 2A StopGo recoding; control for the full effect not named in the record; Potency, µM (series often up to 57.9 µM), for inactives: top-dose signal change, negative = less light; 410,000 tested, 1.2% active; active = well fitted falling curve with a large enough effect; inconclusive = small, poorly fitted or top-dose-only effect; inactive = no such curve, though single readings can be large or run the other way; tested in HEK293T cells; further: on the % scale 0 is the no-effect control and ±100 the full control effect; nearly all actives have a fitted effect of over 45% in size; luciferase light after 4 h
Cruzain Triton – blocks cruzain activity in presence of Triton detergent; P25779; purified cruzain, Z-FR-AMC fluorescence, 0.01% Triton; Potency, µM, for the others: max response, negative = inhibition, usual class: inhibitors; 200,000 tested, 0.43% active; active means well fitted curve in the direction sought with a large enough effect; inconclusive means small, poorly fitted or top-dose-only effect, or another doubt; inactive means no such curve, though single readings can be large; an effect the other way counts as inactive or inconclusive;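 further: plate controls were neutral wells for no effect and buffer without enzyme for full effect; nearly all actives have a fitted effect of over 40% in size; top concentration of the series not given in the record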
Target sequence (P25779 123-467 limits assumed): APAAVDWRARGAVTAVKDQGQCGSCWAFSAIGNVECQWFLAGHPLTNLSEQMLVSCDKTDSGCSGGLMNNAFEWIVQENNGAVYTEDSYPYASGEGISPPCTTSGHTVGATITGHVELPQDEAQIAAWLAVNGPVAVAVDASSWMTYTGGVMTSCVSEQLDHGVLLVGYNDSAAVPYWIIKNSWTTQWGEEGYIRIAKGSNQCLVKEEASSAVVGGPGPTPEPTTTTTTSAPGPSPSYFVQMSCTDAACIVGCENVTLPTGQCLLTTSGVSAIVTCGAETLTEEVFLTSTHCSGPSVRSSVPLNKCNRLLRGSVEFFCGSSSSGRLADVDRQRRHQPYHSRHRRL
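Z-FR-AMC hydrolysis (2 uM substrate) by cruzain (1.5 nM) monitored kinetically at ex 360/em 450 nm after 15 min room-temperature compound exposure; 0.01% Triton X-100, pH 5.5, 5 mM DTT.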
Cruzain inh noDet – cruzain (T. cruzi) inhibition without detergent; Potency, µM, for inactives: max response, negative = inhibition, hits mostly inhibitors; 200,000 tested, 2.3% active; P25779; purified cruzain, Z-FR-AMC fluorescence, no detergent; active means well fitted curve in the direction sought with a large enough effect; inconclusive means small, poorly fitted or top-dose-only effect, or another doubt; inactive means no such curve, though single readings can be large; an effect the other way counts as inactive or inconclusive;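 further: plate controls were enzyme without inhibitor for no effect and buffer without enzyme for full effect; nearly all actives have a fitted effect of over 40% in size; top concentration of the series not given in the record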
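Purified cruzain at 1.5 nM, pre-incubated 15 min with compound at room temperature in 100 mM sodium acetate pH 5.5, 5 mM DTT, 0.00005% Triton X-100. Reaction started with 2 uM Z-FR-AMC; AMC fluorescence increase over 60 s gives rate.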
NS1 inh – inhibitors of influenza NS1 protein function; S. cerevisiae slowed by influenza A NS1, growth recovery by OD600; Potency, µM (series often up to 46.1 µM), inactives show at the highest dose activity, positive = more growth; 270,000 tested, 0.4% active; further: actives are rising curves; nearly all actives have a fitted effect of over 50% in size
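OD600 was taken as the measure of yeast growth restored by compound in an NS1-expressing S. cerevisiae strain. Cells had been washed out of glucose medium and diluted 1:100 into galactose -URA medium, pH 6.0.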
RE007 growth inh – less growth of the S. pombe RE007 Vpr strain. S. pombe RE007 Vpr strain, BacTiter-Glo ATP luminescence, 24 h; control for the full effect not named in the record. 360,000 tested, 0.21% active. Potency, µM (titrated, usually from 92.2 µM), for inactives: at the highest dose activity change, negative = less growth; active = well fitted falling curve with a large enough effect; inconclusive = small, poorly fitted or top-dose-only effect; inactive = no such curve, though single readings can be large or run the other way;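 further: on the % scale 0 is the no-effect control and ±100 the full control effect; nearly all actives have a fitted effect of over 50% in size; the assay follows cell death caused by Vpr and the record does not say whether a fall means rescue or toxicity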
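Fission yeast strain RE007, carrying one chromosomally integrated HIV-1 vpr copy, was seeded at OD 0.01 in PMG+AL medium with 23 nL pinned compound. After 24 h at 30 °C and 99% humidity, viability was read by BacTiter-Glo luminescence.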
* hit, by the source's call; ? = inconclusive; nt = not tested or not shown; & = joins results of further samples; [ ] = another dose, or the depositor's remark. Unless noted, the call rests on the fitted dose curve; in most records, active means well fitted rising curve with a large enough effect; inconclusive means small, poorly fitted or top-dose-only effect; inactive means no such curve, though single readings can be large or run the other way. Potency means the concentration at half of the fitted maximal effect. Compounds were not picked by outcome; 4.8% or so of the library scored in one or more.

Values run as follows: SARS PLpro yeast	Marburg entry inh	LASV entry inh	2A StopGo	Cruzain Triton	Cruzain inh noDet	NS1 inh	RE007 growth inh
> Cc1cccc(NC(=O)[C@H](C)NC(=O)[C@@H]2Cc3ccccc3CN2C(=O)OC(C)(C)C)c1
 : -1%	nt	nt	18%	nt	nt	8%	-3%
> O=C(NCC(=O)N1CC=C(c2ccccc2)CC1)c1ccco1
 : -1%	2%	-5%	18%	nt	nt	nt	2%
> O=C(CN(Cc1ccccc1)C(=O)CCC(=O)Nc1nccs1)NCc1ccccc1
 : 1%	15%[46.1 µM]	nt	-5%	nt	nt	4%	-5%
> COc1ccc(Nc2nc(C)cc(C)c2C#N)c(OC)c1
 : -1%	10%[46.1 µM]	18%[46.1 µM]	-2%	nt	nt	-13%	1%
> CC(C)(C)c1ccc(-n2nc(C(N)=O)c(O)cc2=O)cc1
 : 6%	?	-22%	-10%	nt	nt	-4%	-8%
> C[n+]1cnn2c1SCC1(COC1)C2
 : -2%	4%	0%	8%	1.0%	-1%	8%	5%
> CCOC(=O)c1ccccc1NC(=O)Nc1cc2c(cc1N1CCCC1)n(C)c(=O)n2C
 : nt	-47%[46.1 µM]	0%[46.1 µM]	-8%	-3.0%	5%	nt	nt
> OC(CNCc1ccc(-c2ccccc2)cc1)c1ccccc1 (stereo not given)
 : 6%	?	?	16%	nt	nt	nt	5%
> COc1ccc(C(=O)c2c(C)c3cc(C)ccc3n2CC(O)CN2CCOCC2)cc1 (stereo not given)
 : 10%	?	?	0%	-8.6%	5%	-42%	-5%
> Cc1ccccc1C(=O)NCC(=O)NC1CC1
 : -2%	12%	-9%	0%	nt	nt	nt	-18%
> COc1cccc(OC)c1C(=O)Nc1ccc(C(=O)c2ccncc2)cc1
 : 3%	2%[46.1 µM]	-1%	-10%	nt	nt	nt	13%
> Cc1ccc(-n2ncc(C(=O)N3CCc4ccccc4C3)c2C2CCN(C(=O)OC(C)(C)C)CC2)cc1C
 : nt	nt	-1%[46.1 µM]	-7%	-0.9%	6%	nt	nt
> Cc1csc(C(C)N(C)C(=O)CCc2nnc(CCc3ccccc3)o2)n1 (stereo not given)
 : 1%	nt	nt	17%	nt	nt	-2%	-8%
> O=C1CN(C(=O)CN2CCCC2)C(c2ccccc2)c2cc(Br)ccc2N1 (stereo not given)
 : 4%	?	-16%	-13%	4.5%	16%	-5%	-12%
> Cc1c(C(=O)N(Cc2ccccc2)Cc2cccs2)cnn1-c1ccc(Cl)cc1
 : -3%	?	?	?	nt	nt	5%	2%
> CCCCn1c(N)c(N(CCC(C)C)C(=O)COC(=O)Cc2ccc(Cl)cc2)c(=O)[nH]c1=O
 : nt	13µM*	?	-28%	nt	nt	nt	3%
> CCOC(=O)CC1C(=O)NCCN1C(=O)Nc1ccccc1 (stereo not given)
 : 8%	?	1%	-3%	-2.4%	-2%	12%	4%
> CN(C)S(=O)(=O)c1ccc(NC(=O)c2cc3ccccc3o2)cc1
 : -5%	?	-24%	-4%	-9.5%	-7%	-11%	12%
> COc1c(Cl)cc(-c2noc(C)c2C(=O)NC(C)C)cc1Cl
 : 19%	5%	-13%	-2%	0.6%	1%	-23%	4%
> CCCCN(c1ccccc1)c1ncnc2c1cnn2-c1ccc(Cl)cc1
 : nt	nt	16%[46.1 µM]	-3%	1.3%	11%	nt	nt
> COc1ccc(N(CC(=O)Nc2cccc(N(C)S(C)(=O)=O)c2)S(=O)(=O)c2ccc(C)cc2)cc1
 : 1%	nt	nt	26%	nt	nt	5%	3%
> CC1Sc2ccc(S(=O)(=O)N3CCC(C(=O)NCC(C)c4ccccc4)CC3)cc2NC1=O (stereo not given)
 : -11%	-29%[46.1 µM]	?	?	nt	nt	-5%	-13%
> CCCCNC(=S)NCCN1CCCCC1
 : -11%	-3%	-16%	0%	1.2%	-3%	-1%	-5%
> O=C1CCC2=C(CCCC2=O)N1
 : 0%	-21%	0%	-19%	nt	nt	6%	9%
> COc1ccc(CN2CCN(C(C)C)C(CCO)C2)cc1Cn1cncn1 (stereo not given)
 : 1%	-3%[46.1 µM]	8%	-7%	nt	nt	2%	2%
> Cc1ccc2c(c1)C(c1ccccc1)N(C(=O)c1ccc(OC(C)C)cc1)CC(=O)N2 (stereo not given)
 : nt	-6%[46.1 µM]	?	8%	-6.3%	5%	nt	nt
> O=C(CCCOc1ccc(Cl)cc1Cl)Nc1cc(S(=O)(=O)N2CCOCC2)ccc1N1CCOCC1
 : nt	?	?	-19%	nt	nt	nt	3%
> Oc1c(Br)cc(C=Nc2ccc3nc(-c4ccccc4)[nH]c3c2)c(O)c1Br
 : -2%	?	-27%[46.1 µM]	-13%	nt	nt	nt	-9%
> Cc1ccc(NCc2cc3cc4c(cc3n(CC(=O)Nc3ccc(C)cc3)c2=O)OCCO4)cc1
 : nt	nt	11%[46.1 µM]	50%[activator]	-6.6%	?	nt	nt
> CC(=O)N1CCc2c(sc3nc(SCC(C)C)n(-c4ccc(F)c(Cl)c4)c(=O)c23)C1
 : nt	0%[46.1 µM]	-7%[46.1 µM]	-26%	-8.6%	?	nt	nt
> CC(=O)c1cn(CC(=O)NCCc2c[nH]c3ccccc23)c2ccccc12
 : -3%	nt	nt	?	nt	nt	24%	5%
> CN1C(=O)C(=Cc2ccc(N3CCOCC3)o2)C(=O)N(C)C1=O
 : -2%	?	-6%	13%	-17%	-10%	16%	-1%
> CCc1ccccc1NC(=O)NC1CC2CCC(C1)N2Cc1cccs1 (stereo not given)
 : 3%	-45%	3%	nt	0.1%	-8%	3%	2%
> CCCCC(=O)N/N=C/c1c(O)n(-c2cccc3ccccc23)c(=O)[nH]c1=O
 : -1%	nt	nt	-5%	nt	nt	-4%	10%
> O=C(CN(C(=O)c1csnn1)c1cccc(C(F)(F)F)c1)NC1CCCC1
 : 1%	-4%[46.1 µM]	24%	-11%	nt	nt	1%	17%
> CCOc1ccccc1NC(=S)Nc1ccc(S(N)(=O)=O)cc1
 : -1%	-2%	2%	-2%	nt	nt	-3%	9%
> N#C/C(=C\c1ccc(-c2cccc([N+](=O)[O-])c2)o1)C(=O)N1CCOCC1
 : -1%	14%[46.1 µM]	-4%	8%	nt	nt	0%	4%
> CCOC(=O)c1[nH]c(C)c(C(=O)OCc2ccc(C)cc2)c1C
 : 1%	-11%[46.1 µM]	nt	1%	nt	nt	1%	0%
> Nc1nnc(SCC(=O)Nc2nnc(-c3ccccc3)o2)s1
 : -9%	?	-1%	-18%	nt	nt	nt	7%
> COCCn1c(-c2ccc(OC)cc2)cnc1N
 : -1%	?	-4%	16%	3.2%	13%	-3%	4%
> CC1(C)C(O)=C(c2nc3ccccc3[nH]2)C(=N)N1c1ccccc1
 : -1%	18%	19%	9%	4.2%	-3%	7%	14%
> CCOc1ccc(NC(=O)CSc2ncn[nH]2)cc1
 : -9%	4%&3%[46.1 µM]	-7%&0%[46.1 µM]	-14%&19%	-1.0%	1%	16%	0%
> CCN1CCN(CCCNC(=O)c2cnn(-c3ccc(C)cc3C)c2C2CCN(C(=O)OC(C)(C)C)CC2)CC1
 : nt	nt	?	-14%	0.2%	37%	nt	nt
> COc1ccccc1-c1cc(-c2ccccc2)nc(SCC(=O)O)c1C#N
 : 7%	nt	nt	-17%	nt	nt	10%	15%
> N#Cc1c(N)nc2c(c1-c1ccncc1)CCCC2
 : -18%	21%	-3%	-14%	-0.1%	3%	0%	-4%
> CCCC(=O)Nc1ccc(NC(=O)c2ccccc2)nc1
 : 1%	?	?	-13%	nt	nt	-3%	15%
> CCOC(=O)NC1(C(F)(F)F)C(=O)NC(C)=C1C#N (stereo not given)
 : 3%	1%	7%	-5%	4.6%	2%	19%	3%
> COc1cccc(C(=O)N(Cc2cccc(F)c2)C2CCS(=O)(=O)C2)c1 (stereo not given)
 : nt	13%[46.1 µM]	-2%[46.1 µM]	2%	-2.4%	-10%	nt	nt
> Cc1cc(C)n(CC(=O)NNC(=O)COc2ccc(Br)cc2F)n1
 : -3%	-2%	7%	-11%	nt	nt	nt	-4%
> CCCN1CCN(C(=O)C2CCN(S(=O)(=O)c3ccc4c(c3)oc(=O)n4C)CC2)CC1
 : 7%	1%	nt	-15%	4.6%	16%	4%	-9%
> CC(NS(=O)(=O)c1cn(C)c(=O)n(C)c1=O)c1ccccc1 (stereo not given)
 : -1%	?	3%	-10%	nt	nt	13%	5%
> CC(C)=CC1C(C(=O)NCCOc2ccccc2)C1(C)C (stereo not given)
 : -1%	-11%	-40%	-25%	nt	nt	-26%	32%
> CCS(=O)(=O)N1Cc2ccccc2CC1C(=O)Nc1cc(S(C)(=O)=O)ccc1Cl (stereo not given)
 : -4%	nt	nt	8%	nt	nt	-2%	4%
> Cc1ccc(CNC(=O)/C(C#N)=C/c2ccc(C)s2)cc1
 : 0%	-26%[46.1 µM]	-3%	12%	-4.8%	-9%	-6%	-9%

Fetched one by one from above, 2 records:
Values run as follows: SARS PLpro yeast	Marburg entry inh	LASV entry inh	2A StopGo	Cruzain Triton	Cruzain inh noDet	NS1 inh	RE007 growth inh
> CCCCN(c1ccccc1)c1ncnc2c1cnn2-c1ccc(Cl)cc1
 : nt	nt	16%[46.1 µM]	-3%	1.3%	11%	nt	nt
> CCN1CCN(CCCNC(=O)c2cnn(-c3ccc(C)cc3C)c2C2CCN(C(=O)OC(C)(C)C)CC2)CC1
 : nt	nt	?	-14%	0.2%	37%	nt	nt
